Screens as filed in PubChem.
D2 PAM – Beta-Arrestin HTS for Positive Allosteric Modulators of the Human D2 Dopamine Receptor: Potentiators | potentiation, % (test concentration not listed) | AID 624464, 2012 | D(2) dopamine receptor (Homo sapiens), P14416 | DiscoveRx D2 beta-arrestin cells, luminescence, 90 min; 100% = 57 uM dopamine signal | 360,000 tested, 0.23% active; active = potentiation of 50% or more; inconclusive = 30% to 50%; inactive = 30% or less;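 further: compound concentration not given in the record; tested on top of an EC20 dose of dopamine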
Target sequence (P14416 whole entry, looked up): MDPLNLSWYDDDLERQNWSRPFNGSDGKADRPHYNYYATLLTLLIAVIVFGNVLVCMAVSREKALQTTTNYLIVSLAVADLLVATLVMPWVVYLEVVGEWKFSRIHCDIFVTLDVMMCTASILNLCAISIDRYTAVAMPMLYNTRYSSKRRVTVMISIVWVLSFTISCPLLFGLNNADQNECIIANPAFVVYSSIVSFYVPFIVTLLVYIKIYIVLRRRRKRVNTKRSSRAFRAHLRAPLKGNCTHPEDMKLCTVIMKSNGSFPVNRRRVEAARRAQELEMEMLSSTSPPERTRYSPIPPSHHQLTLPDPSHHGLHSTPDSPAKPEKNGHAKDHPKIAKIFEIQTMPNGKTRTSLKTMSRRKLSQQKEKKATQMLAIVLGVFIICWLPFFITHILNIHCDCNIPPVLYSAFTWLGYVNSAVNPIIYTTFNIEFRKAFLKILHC
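PathHunter beta-arrestin assay in DiscoveRx D2 cells. Compounds were added with an EC20 of dopamine (50 nM final) for 90 min at 37 deg C. Luminescence was read 1 h after detection reagent, with 57 uM dopamine as the EC100 control.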
gsp agonist – qHTS for Agonist of gsp, the Etiologic Mutation Responsible for Fibrous Dysplasia/McCune-Albright Syndrome: qHTS; AID 624287, 2012; gsp mutant cells, cAMP HTRF, 30 min; control for the full effect not named in the record; 340,000 tested, 0.13% active; Potency, µM (titrated, usually from 76.9 µM), for the others: top-dose activation (cAMP increase), most hits filed as activators; active = well fitted activation curve with a large enough effect; inconclusive = small, poorly fitted or top-dose-only effect, or another doubt; inactive = no such curve, though single readings can be large or run the other way; cell line not stated here;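 further: phosphodiesterase inhibitor Ro 20-1724 added with compounds to block cAMP breakdown; potency means the concentration at half of the fitted maximal effect; nearly all actives have a fitted effect of over 60% in size; about a fifth of the inactives were tested at one dose only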
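Cells in DMEM/10% FBS with G418 were pretreated with compounds in DMSO plus […] (300 uM stock) for 30 min at 37C. cAMP was measured by HTRF (cAMP-d2 plus anti-cAMP antibody-K) after 30 min at room temperature.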
D2 ag – Beta-Arrestin HTS for Positive Allosteric Modulators of the Human D2 Dopamine Receptor: Agonists. D(2) dopamine receptor (Homo sapiens), P14416. DiscoveRx PathHunter D2 beta-arrestin, luminescence, 90 min; 100% = 57 uM dopamine signal. activation, % (concentration not given with the values). 360,000 tested, 0.084% active; in the data active = activation above about 40%; inconclusive = about 15% to 40%; inactive = below about 15%; further: compound concentration not given in the record; the text of the record calls up to 30% inactive
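Agonist mode: compounds alone added to overnight-plated D2 PathHunter cells for 90 min at 37 C, with 57 uM final dopamine (EC100) defining full response. Beta-arrestin recruitment detected by chemiluminescent reagent, read after 1 h at ambient temperature.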
Six1-Eya2 inh – qHTS Assay for Inhibitors of the Six1/Eya2 Interaction; Homeobox protein SIX1 (Homo sapiens) + Protein phosphatase EYA2 (Homo sapiens), …; AlphaScreen GST-Six1/His-Eya2 binding, biochemical; stronger effect = lower value; control for the full effect not named in the record; activity change, % (concentration not given with the values); 360,000 tested, 0.56% active; AID 651725, 2012; in the data active = activity change below about -65%; inconclusive = about -30% to -65%; inactive = above about -30%; further: on the % scale 0 is the no-effect control and ±100 the full control effect
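Compounds are tested against tagged Six1 and Eya2 proteins bridged by glutathione donor and nickel acceptor beads; after a one-hour incubation at 37 °C without light, AlphaScreen emission is recorded.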
CtBP-E1A blk – qHTS Assay for Inhibitors of the CtBP/E1A Interaction; CtBP / adenovirus E1A interaction (AlphaScreen); AlphaScreen GST-E1A/His-CtBP binding, 1536-well; stronger effect = lower value; control for the full effect not named in the record; activity change, % (test concentration not listed); 340,000 tested, 0.49% active; in the data active means activity change below about -65%; inconclusive means about -30% to -65%; inactive means above about -30%; further: on the % scale 0 is the no-effect control and ±100 the full control effect; compound concentration not given in the record
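In 5 uL wells, 23 nL compound meets equimolar GST-E1A and His-CtBP (5X stock 125 nM each) for 2 h, 37 °C. Beads (5X, 50 ug/mL) then 1 h, 37 °C, dark.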
gsp antag – qHTS for Antagonists of gsp, the Etiologic Mutation Responsible for Fibrous Dysplasia/McCune-Albright Syndrome: qHTS; gsp-mutant cells, cAMP HTRF, 30 min; control for the full effect not named in the record; Potency, µM (series often up to 76.9 µM), without a hit: at the highest dose activity change, negative = inhibition, usual class: inhibitors; 340,000 tested, 0.4% active; AID 624288, 2012; active = falling curve of any shape with a large fitted effect; inconclusive = falling curve, mostly with a smaller effect; inactive = flat or rising curve; cell line not stated here;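 further: intracellular cAMP measured with PDE inhibitor Ro 20-1724 present during compound exposure; potency means the concentration at half of the fitted maximal effect; on the % scale 0 is the no-effect control and ±100 the full control effect; nearly all actives have a fitted effect of over 65% in size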
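HTRF cAMP read-out (cAMP-d2 plus anti-cAMP antibody-K in lysis buffer, 30 min RT). Before lysis, cells are exposed to compounds with […] for 30 min at 37C in DPBS containing Ca/Mg, BSA and Tween 20.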
* marks the source's active call; other numbers are inactive results; ? = inconclusive; nt = not tested or not shown; & = joins results of further samples; [ ] = remark or other dose.

item	molecule	CtBP-E1A blk	gsp agonist	gsp antag
1	Cc1ccc(S(=O)(=O)N2CCCN(C(=O)c3ccc(-n4nccc4C)cc3)CC2)cc1	1	28%[15.4 µM]	-13%
2	COc1cccc(-c2nc3ccccc3s2)c1	44	17%	7%
3	COc1cc(NC(=O)c2ccc(S(=O)(=O)N(C)c3ccccc3)cc2)cc(OC)c1	-9	nt	?
4	CCc1nnc(NS(=O)(=O)c2ccc(NC(=O)c3cccc4ccccc34)cc2)s1	0	?	-5%
5	COc1ccc(OCC(=O)N2CCCC(Nc3ccc(C)c(C)c3)C2)cc1 (stereo not given)	23	-103%[inhibitor]	nt
6	C=C(C)CSc1cc(C)c(C#N)c2nc3ccccc3n12	-17	?	-3%
7	O=C(Nc1ccc(F)cc1Cl)C1CCN(C(=O)Nc2ccccc2)CC1	3	?	1%
8	O=S(=O)(N/N=C1/CC(c2ccccc2)Oc2ccccc21)c1ccc(Br)cc1 (stereo not given)	-17	25%	-30%

item	D2 ag	Six1-Eya2 inh	D2 PAM
1	0.7	2	-12
2	-3.3	15	13
3	2.9	-4	-6
4	4.7	2	2
5	4.9	22	3
6	2.5	-11	9
7	-5.6	3	6
8	1.4	-9	-5

More results:
item	molecule	CtBP-E1A blk	gsp agonist	gsp antag
9	O=C(CN1CCOCC1)NCc1ccccc1Cl	-2	26%	12%
10	COc1cccc(C2C(C(=O)Nc3ccccc3)=C(C)N=c3s/c(=C/c4ccc(OCC(=O)O)cc4)c(=O)n32)c1 (stereo not given)	-5	-7%	-1%
11	C[C@@H](C(=O)Nc1ccc2ccccc2c1)[C@H]1C[C@]1(C)[C@H](NC(=O)c1cnccn1)c1ccccc1	-5	nt	-10%
12	CCOC(=O)N1CCN(CC(=O)N2c3ccccc3CCc3ccccc32)CC1	nt	-1%	-8%
13	COc1ccc(-c2cnc(NCc3cc4c(cc3[N+](=O)[O-])OCO4)n2C)cc1	6	11%	9%
14	Cn1nnnc1SCCNC(=O)C1CCC(=O)N(Cc2ccc(Cl)cc2)C1 (stereo not given)	0	30%	-11%
15	CCNc1nc(C23CC4CC(CC(C4)C2)C3)cs1	-29	-36%[inhibitor]	-6%
16	O=C(CSc1nc(=O)n2ccccc2n1)N1CCC(Cc2ccccc2)CC1	0	13%	11%

item	D2 ag	Six1-Eya2 inh	D2 PAM
9	-4.8	8	-7
10	-5.1	-17	-16
11	-2.4	-5	-7
12	-3.0	5	-10
13	-1.7	-19	-28
14	-5.5	13	-1
15	-0.3	-10	4
16	0.2	-8	-33

Next section.
item	molecule	CtBP-E1A blk	gsp agonist	gsp antag
17	Cc1ccc([C@@H]2CC(=O)[C@@H]3CN(S(=O)(=O)c4ccc(C)cc4)[C@H](c4cccc(Cl)c4)C[C@@H]3N2S(=O)(=O)c2ccc(Cl)cc2)cc1	3	2%	nt
18	CCCNS(=O)(=O)c1ccc(OCC(=O)NCc2ccco2)cc1	-1	0%	10%
19	CCCN(C(=O)C(NC(=O)c1ccccc1)C(C)C)c1c(N)n(Cc2ccccc2)c(=O)[nH]c1=O (stereo not given)	4	9%[15.4 µM]	18%
20	O=C(NCc1ccco1)C1CC(=O)N(c2ccc(F)cc2)C1 (stereo not given)	0	-6%	1%
21	COc1ccc(NC(=S)Nc2ccc(OCc3ccccc3)cc2)cc1OC	-2	-12%	-6%
22	Cc1ccc(-c2nn3c(C)nnc3s2)cc1NC(=O)c1ccc(-c2cccc(Cl)c2)o1	-5	-26%	?
23	COc1cc(OC)c(OC)cc1CNCc1ccco1	-11	4%[15.4 µM]	8%
24	CC1CCCC(N2C(=O)NC(NC(=O)c3ccco3)(C(F)(F)F)C2=O)C1C (stereo not given)	5	6%	0%

item	D2 ag	Six1-Eya2 inh	D2 PAM
17	-7.2	2	2
18	-3.2	0	-1
19	-5.0	1	-9
20	1.2	6	5
21	-1.7	-16	1
22	-1.6	-11&-24	-2
23	-3.1	0	-4
24	-3.4	7	-20

The results go on.
item	molecule	CtBP-E1A blk	gsp agonist	gsp antag
25	CCCN1C(=O)c2ccccc2NC1c1ccc(Cl)cc1 (stereo not given)	2	20%	-5%
26	O=C1Nc2cnc(Cl)nc2Nc2ccccc21	-4	nt	nt
27	CC(=O)Nc1ccc(S(=O)(=O)N(C)c2ccc(OCC(=O)OCC(=O)N3CCCCC3)cc2)cc1	5	11%[15.4 µM]	2%
28	Cc1ccc(N(C(=O)c2csnn2)C(C(=O)NC2CCCCC2)c2ccccn2)c(C)c1 (stereo not given)	2	-15%[15.4 µM]	-5%
29	Cc1ccc(NC(=O)CNNC(=O)c2cccc([N+](=O)[O-])c2)cc1[N+](=O)[O-]	-4	-43%[inhibitor]	-9%
30	O=C(Nc1c[nH]c2c(Cl)cccc2c1=O)N1CCN(c2ccccn2)CC1	2	?	-1%
31	CCc1oc(C(=O)O)cc1CN(CC)CC	0	-2%	5%
32	Cc1ccccc1NC(=O)CCNS(=O)(=O)c1cccc2nsnc12	2	-18%[15.4 µM]	3%

item	D2 ag	Six1-Eya2 inh	D2 PAM
25	-3.6	4	-10
26	-6.0	1	-6
27	1.3	1	3
28	-4.8	2	-3
29	0.6	2	-2
30	-0.7	6	-3
31	-0.9	8	-5
32	-3.3	-7	-7

Remaining list, next part
item	molecule	CtBP-E1A blk	gsp agonist	gsp antag
33	COc1ccc(NS(=O)(=O)c2cccc(C(=O)NCC3CCCO3)c2)cc1 (stereo not given)	4	3%	-7%
34	CN(C)S(=O)(=O)c1ccc(Cl)c(NC(=O)CN2C(=O)NC(C)(C3CC3)C2=O)c1 (stereo not given)	4	12%	4%
35	CCn1c(C)nnc1SCC(=O)Nc1ccccc1OC	-1	-16%[15.4 µM]	4%
36	COC(=O)c1ccccc1NC(=O)C1CC(=O)N(c2ccc(C)c(C)c2)C1 (stereo not given)	41	-27%	-8%
37	O=C(NCc1ccccn1)Nc1ccccc1F	2	-13%	8%
38	O=C(c1ccco1)N1CCN(C2=NS(=O)(=O)c3ccccc32)CC1	0	8%	10%
39	COc1cccc(C(C)(O)c2nc(-c3ccc(F)c(Cl)c3)cs2)c1 (stereo not given)	4	nt	nt
40	O=C(CC1SC(=NC2CCCCC2)NC1=O)Nc1ccccc1 (stereo not given)	15	2%	-3%

item	D2 ag	Six1-Eya2 inh	D2 PAM
33	-1.1	6	-13
34	-0.8	1	-9
35	3.0	-2	1
36	-1.7	23	-3
37	0.9	2	1
38	0.6	-1	-16
39	13	5	-13
40	-1.7	8	-11

Fetched by compound from above, 2 records:
item	molecule	CtBP-E1A blk	gsp agonist	gsp antag
35	CCn1c(C)nnc1SCC(=O)Nc1ccccc1OC	-1	-16%[15.4 µM]	4%
34	CN(C)S(=O)(=O)c1ccc(Cl)c(NC(=O)CN2C(=O)NC(C)(C3CC3)C2=O)c1 (stereo not given)	4	12%	4%

item	D2 ag	Six1-Eya2 inh	D2 PAM
35	3.0	-2	1
34	-0.8	1	-9

5 compounds out of the list, sorted by length of the SMILES, low to high:
item	molecule	CtBP-E1A blk	gsp agonist	gsp antag
4	CCc1nnc(NS(=O)(=O)c2ccc(NC(=O)c3cccc4ccccc34)cc2)s1	0	?	-5%
22	Cc1ccc(-c2nn3c(C)nnc3s2)cc1NC(=O)c1ccc(-c2cccc(Cl)c2)o1	-5	-26%	?
29	Cc1ccc(NC(=O)CNNC(=O)c2cccc([N+](=O)[O-])c2)cc1[N+](=O)[O-]	-4	-43%[inhibitor]	-9%
19	CCCN(C(=O)C(NC(=O)c1ccccc1)C(C)C)c1c(N)n(Cc2ccccc2)c(=O)[nH]c1=O (stereo not given)	4	9%[15.4 µM]	18%
17	Cc1ccc([C@@H]2CC(=O)[C@@H]3CN(S(=O)(=O)c4ccc(C)cc4)[C@H](c4cccc(Cl)c4)C[C@@H]3N2S(=O)(=O)c2ccc(Cl)cc2)cc1	3	2%	nt

item	D2 ag	Six1-Eya2 inh	D2 PAM
4	4.7	2	2
22	-1.6	-11&-24	-2
29	0.6	2	-2
19	-5.0	1	-9
17	-7.2	2	2

The listing continues:
item	molecule	CtBP-E1A blk	gsp agonist	gsp antag
41	CN(c1ccccc1C(=O)Nc1ccc(S(=O)(=O)N2CCOCC2)cc1)S(=O)(=O)c1ccccc1	-10	?	-11%
42	Cc1ccc(CNS(=O)(=O)c2ccc3c(c2)C(C)(C)C(=O)N3C)cc1	4	6%	4%
43	O=C(NNC(=S)NC(=O)c1ccccc1[N+](=O)[O-])c1ccccc1O	-94*	-30%[inhibitor]	-4%
44	Cc1cc(C)c2c(N)c(C(=O)NNC(=O)c3ccccc3)sc2n1	4	21%	1%
45	COc1ccc(C(=O)/C=C/c2ccc(N(C)C)cc2)c(OC)c1	-2	-3%[15.4 µM]	-14%
46	O=C(Nc1ccc2c(c1)CCCN2C(=O)c1cccs1)c1c(F)cccc1F	-15	?	-12%
47	Cc1cc([N+](=O)[O-])ccc1NC(=O)CSc1nccc(=O)[nH]1	5	-2%	3%
48	COc1cccc(-n2nnnc2SCC(=O)Nc2ccc(OC)cc2OC)c1	11	?	14%

item	D2 ag	Six1-Eya2 inh	D2 PAM
41	2.8	-2	-1
42	-0.9	-1	-2
43	-3.5	-74*	3
44	4.3	11	-4
45	-3.3	21	9
46	6.7	-1	-4
47	2.3	3	-1
48	-4.4	-4	-9

The list goes on:
item	molecule	CtBP-E1A blk	gsp agonist	gsp antag
49	Cc1ccc(C(=O)N/N=C\c2cccn2C)cn1	-4	?	-25%
50	CC1CCc2[nH]c3ccc(C(=O)N(C)CC(=O)Nc4ccccc4Cl)cc3c2C1 (stereo not given)	-7	-39%[inhibitor]	-5%
51	CCN1CCN(c2c(Cl)cccc2NC(=O)c2cccs2)CC1	6	8%	9%
52	COCCCNC(=S)NC(=O)c1ccc(C)cc1	4	-15%	6%
53	Cn1c(=O)n(CC(N)=O)c(=O)c2c1nc1n2CCCN1Cc1ccccc1	2	?	9%
54	CC(NC(=O)COC(=O)c1ccc(Cl)cc1O)c1ccc(F)cc1 (stereo not given)	7	-6%[15.4 µM]	13%
55	Cc1cccc(-n2cc(CN3CCCN(C=O)CC3)c(-c3cccc(F)c3)n2)c1	0	-4%[15.4 µM]	-18%
56	CC(C)n1c(/C=C/[C@H](O)C[C@H](O)CC(=O)O)c(-c2ccc(F)cc2)c2ccccc21	nt	22%	-15%

item	D2 ag	Six1-Eya2 inh	D2 PAM
49	-3.1	-3	-8
50	-3.5	-21	27
51	-2.3	2	-9
52	-1.8	-4	-19
53	-6.2	-1	-18
54	-4.1	2	-3
55	-1.1	0	-4
56	-1.8	-10	-5

An unsorted share of the library. About 1.4% of those tested had a hit in this group.
